RE007 growth inh – less growth of the S. pombe RE007 Vpr strain; 360,000 compounds, 0.21% hits; Potency, µM (top dose mostly 92.2 µM), inactives show at the highest dose activity change, negative = less growth; AID 651644; S. pombe RE007 Vpr strain, BacTiter-Glo ATP luminescence, 24 h; control for the full effect not named in the record; active = well fitted falling curve with a large enough effect; inconclusive = small, poorly fitted or top-dose-only effect; inactive = no such curve, though single readings can be large or run the other way;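 note: % is set by controls: 0 for no effect and ±100 for the full control effect; nearly all actives have a fitted effect of over 50% in size; the assay follows cell death caused by Vpr and the record does not say whether a fall means rescue or toxicity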
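Fission yeast RE007 carrying one integrated HIV-1 vpr copy, seeded at OD 0.01 in PMG+AL medium with 23 nL pinned compound. Grown 24 h at 30 degrees; viability read by BacTiter-Glo luminescence after 5 min.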
SARS PLpro yeast – inhibitors of SARS-CoV papain-like protease in yeast; S. cerevisiae expressing SARS-CoV PLpro, growth rescue; control for the full effect not named in the record; Potency, µM (highest dose often 32.9 µM), without a hit: at the top dose activity, positive = growth rescue; 330,000 compounds, 0.19% hits; AID 485353; active means well fitted rising curve with a large enough effect; inconclusive means small, poorly fitted or top-dose-only effect; inactive means no such curve, though single readings can be large or run the other way; note: 0% is about no effect; nearly all actives have a fitted effect of over 55% in size; growth read by luminescence after 48 h
StopGo reporter – lowers the luciferase signal of an FMDV 2A StopGo reporter. human cells with a luciferase reporter of 2A StopGo recoding; control for the full effect not named in the record. Potency, µM (top dose mostly 57.9 µM), inactives show at the highest dose signal change, negative = less light. AID 1159524. 410,000 compounds, 1.2% hits; active = well fitted falling curve with a large enough effect; inconclusive = small, poorly fitted or top-dose-only effect; inactive = no such curve, though single readings can be large or run the other way; tested in HEK293T cells; note: % is set by controls: 0 for no effect and ±100 for the full control effect; nearly all actives have a fitted effect of over 45% in size; luciferase light after 4 h
* hit, by the source's call; ? = inconclusive. Potency is the fitted concentration of half-maximal effect. Some of the compounds tested; count on the stated rates, not on these rows.

SMILES | RE007 growth inh | SARS PLpro yeast | StopGo reporter
COc1cccc(NC(=O)CNc2cc(S(=O)(=O)N3CCOCC3)ccc2N2CCCC2)c1 | -6% | -5% | 7%
COc1cc(NC(=O)Cn2cnc(C(=O)Nc3ccc(C)c(C)c3)n2)cc(OC)c1OC | 7% | 9% | -11%
O=C(NCc1ccc(F)cc1)c1ccc(S(=O)(=O)N2CCCCC2)cc1 | -4% | -8% | -15%
O=C(COC(=O)c1ccc(F)c(S(=O)(=O)N2CCOCC2)c1)NCCc1ccccc1 | 17% | -5% | -2%
O=C(COc1ccccc1Cl)Nc1cccc(S(=O)(=O)N2CCCC2)c1 | -2% | -5% | -23%
O=C(NNC(=O)C1CC1)c1cc(Br)c(Br)s1 | 7% | -1% | 2%
CCCC(/C=C/c1ccc(OC(C)=O)cc1)=C1/c2ccccc2C(=O)N1c1ccccc1 | -8% | -3% | -1%
CC1O[C@@H](O[C@H](C)CC[C@@H](C)O[C@H]2OC(C)[C@@H](O)C[C@H]2O)C(O)C[C@H]1O (stereo partly drawn) | 4% | -2% | -8%
O=C(CCn1cccc1)Nc1ccc(OC(F)(F)F)cc1 | -19% | 0% | 15%
NC(=O)CSc1ccc(-c2ccc(F)cc2)nn1 | 1% | 6% | 14%
O=C(NCc1ccc(Cl)cc1)c1cccc(S(=O)(=O)N2CCCC2)c1 | -3% | -20% | 15%
O=C(CN1CCN(S(=O)(=O)c2cc(C(F)(F)F)ccc2Cl)CC1)N1CCc2ccccc2C1 | -11% | -5% | ?
O=C(CCNC(=O)c1ccc(Cl)cc1)Nc1ccc(S(=O)(=O)N2CCOCC2)cc1 | 7% | -2% | -19%
CCCCn1c(N)c(N(CCOC)C(=O)c2sc3ccccc3c2Cl)c(=O)[nH]c1=O | 5% | 2% | 2%
Cc1cc(Cl)nc(Cl)c1C(=O)NCCc1ccccc1 | -8% | -5% | 26%
CCC(CO)Oc1cc(NCc2ccccc2F)c2ncn(C(C)C)c2c1 (stereo not drawn) | -4% | -2% | -4%
COc1cc(/C=N/N=C(N)N)ccc1OCc1ccccc1Cl | -11% | -2% | -39%
Cc1ccc(C)c(NC(=S)/C(=C(\[O-])c2ccc(Cl)s2)[n+]2ccccc2)c1 | -4% | 0% | 15%
O=C(COC(=O)c1ccc(CO)cc1)c1ccc(S(=O)(=O)N2CCCCC2)cc1 | 2% | -1% | -33%
COc1ccc(S(=O)(=O)Nc2c(C)nn(C)c2C)cc1Br | -9% | 2% | -26%
O=C(CCCCCNC(=S)Nc1ccccc1)C[N+](=O)[O-] | -19% | -3% | -9%
O=C(COc1ccc(Cl)cc1)OCC(=O)N1CCOCC1 | -2% | 2% | -16%
Cc1ccccc1SCC(=O)NCC(c1ccc(F)cc1)N1CCOCC1 (stereo not drawn) | -5% | -8% | ?
CCCc1cc(=O)[nH]c(SCC(=O)N2CCc3cc(OC)c(OC)cc3C2)n1 | 10% | 0% | -8%
CC(=O)c1cccc(N2C(=O)Nc3ccccc3N2O)c1 | 16% | 0% | -16%
O=C(COC(=O)CC1CCCC1)Nc1cccc(F)c1 | ? | ? | -9%
CCC1(c2ccccc2)NC(=O)N(CC(=O)Nc2ccc(N3CCOCC3)cc2)C1=O (stereo not drawn) | 17% | -4% | -20%
CCN1C(=O)[C@H]2[C@@H](c3ccc(-c4ccc(F)cc4)c(OC)c3)N3CCC[C@@]3(C(=O)OC)[C@H]2C1=O | 4% | -1% | -27%
COc1ccc(N2C(=O)N3[C@@H]4c5ccccc5OC[C@@H]4[C@@H](c4ccccc4)[C@@]3(C)C2=O)cc1 | 12% | 4% | 8%
COc1cccc(NC(=O)CN2C(=O)NC(CCc3ccccc3)C2=O)c1 (stereo not drawn) | 9% | -1% | -15%
COc1ccc(NC(=O)CNc2ccccc2C(C)=O)cc1S(=O)(=O)N1CCOCC1 | 3% | 2% | -21%
COCCOC(=O)c1[nH]c2c(c1C)C(=O)CC(c1cccs1)C2 (stereo not drawn) | 0% | -2% | -27%
CCOc1ccc(C(=O)NNC(=O)CN2C(=O)C3CC=CCC3C2=O)cc1OC (stereo not drawn) | 5% | -6% | -7%
O=C(O)c1cc(S(=O)(=O)Nc2cc(Cl)ccc2Oc2ccccc2)ccc1O | -2% | -6% | -11%
CCN(CC)C(=O)[C@H]1C[C@H](CC(=O)NCCc2ccccn2)C(=O)N2CCc3c([nH]c4cc(CCC(=O)N(C)C)ccc34)[C@]12C | 5% | -11% | 23%
Cc1ccc(C(=O)c2c3ccccc3[n+]([O-])n2CCO)cc1 | -7% | 2% | 26%
Cc1cc(NC(=O)CSc2nc(-c3cccs3)nc3ccccc23)no1 | 7% | 0% | -5%
COc1ccc(-c2cn(CCC(=O)O)c(C)n2)cc1 | -5% | -9% | -21%
Nc1c(C(=O)CSc2nnc(-c3ccccc3F)o2)c(=O)[nH]c(=O)n1C1CC1 | -4% | -4% | -10%
COc1cc(OC)cc(-c2sc3ccc(OC)cc3c2-c2ccc(O)cc2)c1 | -2% | -5% | -18%
Cc1noc(C)c1COc1ccccc1C(=O)NNC(=O)c1ccc(F)cc1 | -5% | -4% | 1%
COc1ccc(C2CC(c3ccccc3F)=NN2c2ccc(S(N)(=O)=O)cc2)cc1 (stereo not drawn) | -11% | 23% | -23%
C=CC[C@@H](CC(=O)N(CCO)Cc1ccccc1)C(=O)N[C@@H](C)COC(=O)[C@@H](CC=C)CC(=O)OC(C)(C)C | 9% | -2% | 0%
CCCNC(=O)c1onc(CSc2ccc(F)cc2)c1C(=O)NCC1CC1 | -4% | -8% | -27%
Cc1cc(C)cc(C(=O)NCC(=O)OCC(=O)c2c(N)n(C)c(=O)n(C)c2=O)c1 | 1% | -3% | -6%
CN(CC(=O)Nc1ccc(F)cc1)C(=O)c1ccc(N2C(=O)CCC2=O)cc1 | 5% | -6% | -6%
CCN1C(=O)[C@H]2[C@@H](c3ccc(C)cc3)N3C(=O)N(c4ccc(OC)cc4)C(=O)[C@@]3(CC)[C@H]2C1=O | -2% | 2% | 2%
O=[N+]([O-])c1ccc(C[n+]2cccc(O)c2)cc1 | -5% | -6% | -15%
Cc1ccc(S(=O)(=O)Nc2ccc3c(c2)C(=O)N([C@H](C)CO)C[C@H](C)[C@@H](CN(C)Cc2ccc(-c4ccccc4)cc2)O3)cc1 | 10% | 3% | ?
CCc1ccc(C2=NN(CCC(=O)NCc3cccs3)C(=O)CC2)cc1 | 1% | 1% | 12%
COc1ccc(S(=O)(=O)N(C)C[C@H]2Oc3c(NC(=O)C4CC4)cccc3C(=O)N([C@H](C)CO)C[C@@H]2C)cc1 | 2% | 4% | 28%
O=S(=O)(/C=C/c1ccccc1)N1CCN(Cc2ccc3c(c2)OCO3)CC1 | 16% | -12% | -21%
O=C(NCC1COc2ccccc2O1)c1ccc(Cl)c(S(=O)(=O)N2CCOCC2)c1 (stereo not drawn) | 3% | 6% | ?
COc1ccc2oc(C(=O)Nc3nc(C)cs3)c(C)c2c1 | 1% | -4% | 13%
CCOC(=O)c1cc(NC(=O)Nc2ccccn2)c(C)nc1C | 4% | 4% | -8%
Oc1cncc(-c2cccnc2)c1 | 4% | 1% | 16%
Cc1ccc(Cl)cc1N1CCN(C(=O)c2ccccc2SCC(=O)N2CCCC2)CC1 | 3% | 2% | ?
CC(OC(=O)C1=NNC(=O)CC1)C(=O)Nc1ncc(Cl)cc1Cl (stereo not drawn) | -1% | 0% | -1%
CCCCNC(=O)[C@@H]1CCCN1S(=O)(=O)c1cccc2cccnc12 | -9% | -1% | 5%
Cc1ccc(C(C)C)c(OCC(=O)OCC(=O)c2c(N)n(C)c(=O)n(C)c2=O)c1 | -1% | 1% | -10%

Remaining list, next part:
SMILES | RE007 growth inh | SARS PLpro yeast | StopGo reporter
CC[C@]1(C(=O)OC)[C@H]2C(=O)N(C)C(=O)[C@H]2[C@H]2CN=C(SCc3ccc(C#N)cc3)N21 | -14% | -5% | -6%
O=C(O)Cc1cn(Cc2cccc(Cl)c2)c2ccccc12 | -1% | -1% | -11%
CC(OC(=O)C1CSC2(C)CCC(=O)N12)C(=O)Nc1ccc(F)cc1 (stereo not drawn) | -4% | 1% | -21%
CCCN=C1N(C)C[C@@H]2[C@@H]3C(=O)N(C)C(=O)[C@@H]3[C@](Cc3ccccc3)(C(=O)OC)N12 | ? | 2% | -12%
CCOC(=O)c1[nH]c(C)c(C(=O)OCC(=O)NCc2ccc(OC)c(OC)c2)c1C | -3% | -3% | 0%
COC(=O)C1=C(c2ccc(OCc3ccccc3)cc2)C[C@@H]2CC[C@H]1N2C(=O)NCc1ccccc1 | -8% | 1% | ?
C[C@H](CO)N1C[C@H](C)[C@@H](CN(C)Cc2ccc(C(=O)O)cc2)Oc2c(NS(=O)(=O)c3ccc(F)cc3)cccc2C1=O | 21% | -1% | -13%
CCCn1c(SCC(=O)c2c(N)n(C3CC3)c(=O)[nH]c2=O)nnc1-c1ccncc1 | 0% | 4% | -14%
CC(C)C[C@@]12C(=O)N(c3cccc(F)c3)C(=O)N1[C@H](c1ccc(Cl)cc1)[C@@H]1C(=O)N(C3CCCCC3)C(=O)[C@@H]12 | 2% | 4% | -13%
COc1cc(OC)cc(-c2oc(=O)c3cc(OC)c(OC)cc3c2C#CCCO)c1 | -16% | 6% | 5%
CCC(CN(C)C)Oc1cc(NCc2ccccc2)c2ncn(C(C)C)c2c1 (stereo not drawn) | ? | 2% | -15%
CCN1/C(=C2/SC(=S)NC2=O)Sc2ccccc21 | -3% | 0% | -10%
COc1ccc(C(C)(C)C)cc1NC(=O)CN1C(=O)C(=O)N(Cc2ccco2)C1=O | 12% | -7% | -4%
Cc1cc(C)cc(NC(=O)COC(=O)CNC(=O)C2CCCCC2)c1 | 2% | -2% | -5%
COC(=O)C1=C(c2ccc(-c3ccccc3)c(F)c2)C[C@@H]2CC[C@H]1N2C(=O)NC1Cc2ccccc2C1 | 1% | 3% | -26%
O=C(O[C@H]1[C@H](Cc2ccccc2)NS(=O)(=O)[C@H]2C[C@@H]3C=C[C@]12O3)c1ccc([N+](=O)[O-])cc1 | -3% | -11% | 3%
Cc1cnc(NC(=O)c2cccc(S(=O)(=O)N3CC(C)OC(C)C3)c2)s1 (stereo not drawn) | 9% | 3% | ?
COc1ccc(N2CCN(C(CNC(=O)C(=O)NCc3cccs3)c3ccco3)CC2)cc1 (stereo not drawn) | 2% | 5% | -4%
O=C(Cc1c(F)cccc1Cl)N1CCN(S(=O)(=O)c2cccs2)CC1 | -2% | -2% | -2%
Cc1cc(NC(=O)CN(C)CC(=O)Nc2ccc(Cl)cc2)no1 | 3% | -3% | -3%
CCCCn1c(N)c(N(CC(C)C)C(=O)c2ccc(-c3ccc(Cl)cc3)o2)c(=O)[nH]c1=O | 7% | 6% | -34%
CCn1nc(C(=O)NNC(=O)C2CSC3(C)CCC(=O)N23)c2ccccc2c1=O (stereo not drawn) | -10% | -4% | -16%

Whole records, quoted from the list. Screens in order: RE007 growth inh | SARS PLpro yeast | StopGo reporter
CCCCn1c(N)c(N(CC(C)C)C(=O)c2ccc(-c3ccc(Cl)cc3)o2)c(=O)[nH]c1=O in the list: 7% | 6% | -34%
Cc1cc(NC(=O)CN(C)CC(=O)Nc2ccc(Cl)cc2)no1 in the list: 3% | -3% | -3%
Cc1cnc(NC(=O)c2cccc(S(=O)(=O)N3CC(C)OC(C)C3)c2)s1 (stereo not drawn) in the list: 9% | 3% | ?

Seven compounds from above, reduced to RE007 growth inh and StopGo reporter:
Compound	RE007 growth inh	StopGo reporter
O=C(O[C@H]1[C@H](Cc2ccccc2)NS(=O)(=O)[C@H]2C[C@@H]3C=C[C@]12O3)c1ccc([N+](=O)[O-])cc1	-3%	3%
Cc1cnc(NC(=O)c2cccc(S(=O)(=O)N3CC(C)OC(C)C3)c2)s1 (stereo not drawn)	9%	?
COc1ccc(N2CCN(C(CNC(=O)C(=O)NCc3cccs3)c3ccco3)CC2)cc1 (stereo not drawn)	2%	-4%
O=C(Cc1c(F)cccc1Cl)N1CCN(S(=O)(=O)c2cccs2)CC1	-2%	-2%
Cc1cc(NC(=O)CN(C)CC(=O)Nc2ccc(Cl)cc2)no1	3%	-3%
CCCCn1c(N)c(N(CC(C)C)C(=O)c2ccc(-c3ccc(Cl)cc3)o2)c(=O)[nH]c1=O	7%	-34%
CCn1nc(C(=O)NNC(=O)C2CSC3(C)CCC(=O)N23)c2ccccc2c1=O (stereo not drawn)	-10%	-16%
